Insulin prom inh – inhibitors of insulin promoter-driven GFP, primary screen, imaging, TRM-6 cells (human fetal islet line), eGFP reporter, cell count. reporter expression induced with tamoxifen. 130,000 compounds, 0.9% hits. inhibition, % at 2 µM. AID 1273, 2008;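 active means inhibition above the mean plus 3 SD, with well images judged a real hit on visual review, cut at about 60% in these data, passing the limit was not always enough; inconclusive means inhibition over the cutoff but images rejected on review; inactive means inhibition not above the cutoff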
HSV replic up – enhancers of HSV replication in host cells, fold increase, host cell viability | HSV replication augmentation in cells | maximum fold increase | 220,000 compounds, 0.005% hits | AID 1956, 2009;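 active means peak rise of 1.5-fold or more in the series; inconclusive means self-fluorescent or not available for retest; tested in PC3 cells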;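 further: first round at 10 µM; read as green reporter fluorescence; hits show the peak of a series up to 25 µM; 1 = signal of infected wells without compound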
PKD1 kinase inh – inhibitors of human PKD1 kinase, biochemical, fluorescence polarization; PKD1 kinase fluorescence polarization assay; Serine/threonine-protein kinase D1 (Homo sapiens), Q15139; 200,000 compounds, 0.056% hits; inhibition, %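 (about 10 µM by stock and volumes)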;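 active means inhibition of 50% or more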;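 further: controls were vehicle for no effect and a reference inhibitor for full effect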
RGS16-Gao HTS – modulators of RGS16 binding to Galphao, primary screen, biochemical, human proteins, multiplexed bead flow cytometry; bead-based flow cytometry RGS16-Galphao binding, fluorescence; actives lie on both sides; binding response (% of control), % at 10 µM; 220,000 compounds, 0.38% hits; AID 1441, 2008;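 active means below 25% or above 175%, edge rows of some plates excepted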;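 further: Galphao activated by GDP with aluminum fluoride before binding; 100% = wells without compound and 0% = beads without RGS; some results beyond the cut were filed as inactive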
Target sequence (O15492 whole entry, looked up): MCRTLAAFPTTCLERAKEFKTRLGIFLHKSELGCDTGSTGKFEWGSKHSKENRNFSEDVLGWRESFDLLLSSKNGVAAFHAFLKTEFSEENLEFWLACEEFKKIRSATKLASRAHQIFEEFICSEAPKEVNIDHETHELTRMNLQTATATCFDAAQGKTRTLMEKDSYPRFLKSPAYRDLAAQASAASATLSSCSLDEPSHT
Target sequence (P09471 whole entry, looked up): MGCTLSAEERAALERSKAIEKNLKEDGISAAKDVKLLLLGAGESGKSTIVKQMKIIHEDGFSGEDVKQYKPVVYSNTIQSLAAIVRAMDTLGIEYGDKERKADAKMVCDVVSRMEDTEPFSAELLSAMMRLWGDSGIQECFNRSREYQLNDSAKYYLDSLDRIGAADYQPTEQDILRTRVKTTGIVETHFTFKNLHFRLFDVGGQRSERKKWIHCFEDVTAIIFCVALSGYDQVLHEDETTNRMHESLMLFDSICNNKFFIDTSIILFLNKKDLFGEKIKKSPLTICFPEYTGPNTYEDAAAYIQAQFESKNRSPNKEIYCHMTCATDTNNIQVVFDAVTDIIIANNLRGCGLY
GALR2 ag – GALR2 receptor agonists, primary screen, cell-based. Galanin receptor type 2 (Homo sapiens), O43603. GALR2-expressing cells, agonist activation read-out. 140,000 compounds, 0.48% hits. activation, %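 (tested at 5 µM)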;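 active means above mean plus 3 SD of all compounds, about 5% in these data, not always enough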;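 further: 0% = vehicle buffer wells and 100% = reference agonist at full effect; tested in CHO reporter cells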
Target sequence (O43603 whole entry, looked up): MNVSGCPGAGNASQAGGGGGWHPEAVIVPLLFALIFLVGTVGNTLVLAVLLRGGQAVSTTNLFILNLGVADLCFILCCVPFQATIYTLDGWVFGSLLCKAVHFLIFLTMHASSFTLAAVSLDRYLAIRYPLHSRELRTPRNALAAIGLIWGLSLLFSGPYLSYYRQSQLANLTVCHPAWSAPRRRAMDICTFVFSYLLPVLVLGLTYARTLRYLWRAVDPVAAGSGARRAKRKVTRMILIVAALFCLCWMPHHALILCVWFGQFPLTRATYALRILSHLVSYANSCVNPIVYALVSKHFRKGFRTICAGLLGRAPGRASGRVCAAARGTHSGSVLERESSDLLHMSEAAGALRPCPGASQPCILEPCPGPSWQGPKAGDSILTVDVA
Insulin prom inh cell count – recorded beside Insulin prom inh, whose call it bears; normalized cell count, %; measured here: cell count, toxicity; reference of the scale not given here;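 cells exposed to compound for 48 h; stained nuclei by imaging scaled within each plate; lower means fewer cells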
HSV replic up primary fold – second read-out of HSV replic up, no call of its own (marks repeat the call); fold increase; compound at 10 µM; measured here: primary screen fold increase 10 uM; tested in PC3 cells;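 GFP signal in the first replicate; 1 = infected wells without compound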
* = called active by the depositor; i = inactive; ? = inconclusive; nt = no result given. Compounds were not picked by outcome. Share with any hit: about 1.3%.

SMILES	Insulin prom inh	Insulin prom inh cell count	HSV replic up	HSV replic up primary fold	PKD1 kinase inh	RGS16-Gao HTS	GALR2 ag
c1ccc(Nc2cccc3c(Nc4ccccc4)cccc23)cc1	nt	nt	i	0.98	nt	100	nt
N#Cc1cccc(NC(=O)COC(=O)CCc2nc3ccccc3c(=O)[nH]2)c1	nt	nt	i	0.99	-2	101	nt
Cn1nc(N)c2c(-c3ccc(Cl)cc3)c(C#N)c(N)nc21	6	99	i	0.84	4	114	0.4
CCOc1cc2c(cc1OCC)C(C(=O)O)C(c1cc(Br)c(O)c(OC)c1)N(C)C2=O (centres undefined)	nt	nt	i	0.72	0	106	-1.6
Cc1ccc(CSC2=CS(=O)(=O)c3ccccc3N2)cc1	-41	120	i	0.91	12	102	-0.4
O=C(NCCCN1CCOCC1)C(C(=O)NCCCN1CCOCC1)c1ncc(C(F)(F)F)cc1Cl	nt	nt	i	0.99	0	102	nt
C=CCC1CCCC(=O)N2CC[C@H](O)C12 (some centres undefined)	36	100	i	1.1	-7	26	-1.5
CCC1CCCN1Cn1cnc2c([nH]c3ccc(Cl)cc32)c1=O (centres undefined)	-28	105	i	0.77	-9	106	-2.4
CCOC(=O)CCCNC(=O)CCCNC(=O)C(c1ccccc1)c1ccccc1	-3	126	i	0.86	11	104	-0.5
Cc1ccc(-n2c([O-])nc(-[n+]3ccccc3)c2C=O)cc1	20	98	i	0.83	-2	98	-1.4
N#C/C(=C\c1ccc(OCc2ccccc2)cc1)C(N)=O	-25	217	i	1	-3	103	nt
CC1Cc2ccccc2N1CC(=O)Nc1ccc2c(c1)OCO2 (centres undefined)	11	175	i	0.93	12	100	-3.9
CC(C)(C#N)NC(=O)C(=O)c1c(-c2ccccc2)cc2ccccn12	nt	nt	i	0.86	nt	97	nt
O=C(c1ccc(Cl)cc1)c1c[nH]c(C(=O)C(Cl)(Cl)Cl)c1	14	118	i	0.58	-2	99	-3.7
CCOc1[nH]n(-c2ccccc2)c(=O)c1C=NCc1cccnc1	nt	nt	i	0.91	-1	98	nt
COc1cc(CN2CCN(Cc3ccc(C)cc3)C(CCO)C2)cc(OC)c1O (centres undefined)	nt	nt	i	0.92	5	102	nt
CCN(CCn1cccn1)C(=O)c1cc(COc2c(F)cccc2F)on1	nt	nt	i	0.81	3	105	nt
CCOC(=O)c1nc(-c2ccc(OC)c(OC)c2)cnc1C#N	-8	84	i	0.9	14	106	-0.8
Cc1ccsc1/C=N/NC(=O)c1c[nH]c2ccccc12	nt	nt	i	0.75	9	97	-2.0
CCCNC(=O)CN(C)S(=O)(=O)c1c(C)cc(C)cc1C	13	82	i	1.1	-2	60	-2.1
CCN(CC)c1ccc(/C=N/NC(=O)c2c(Cl)cnn2C)c(O)c1	55	60	i	0.66	-8	102	1.3
C=CCc1cc2c(oc(=O)c3ccccc32)c(C)c1O	29	91	i	1.2	-1	105	nt
OCCNCCOc1ccc(Cl)c(Cl)c1	4	86	i	0.79	-3	120	-0.8
CSc1nc2ccsc2c(=O)n1-c1ccccc1	nt	nt	i	1	-1	103	nt

Exported with values under each structure: part of the list above.
Values in the order – Insulin prom inh	Insulin prom inh cell count	HSV replic up	HSV replic up primary fold	PKD1 kinase inh	RGS16-Gao HTS	GALR2 ag
> CC(C)(C#N)NC(=O)C(=O)c1c(-c2ccccc2)cc2ccccn12
 : nt	nt	i	0.86	nt	97	nt
> O=C(c1ccc(Cl)cc1)c1c[nH]c(C(=O)C(Cl)(Cl)Cl)c1
 : 14	118	i	0.58	-2	99	-3.7
> CCOc1[nH]n(-c2ccccc2)c(=O)c1C=NCc1cccnc1
 : nt	nt	i	0.91	-1	98	nt
> COc1cc(CN2CCN(Cc3ccc(C)cc3)C(CCO)C2)cc(OC)c1O (centres undefined)
 : nt	nt	i	0.92	5	102	nt
> CCN(CCn1cccn1)C(=O)c1cc(COc2c(F)cccc2F)on1
 : nt	nt	i	0.81	3	105	nt

More records:
SMILES	Insulin prom inh	Insulin prom inh cell count	HSV replic up	HSV replic up primary fold	PKD1 kinase inh	RGS16-Gao HTS	GALR2 ag
COc1ccc(OC)c(C2CC(c3c(-c4ccccc4)c4cc(Cl)ccc4[nH]c3=O)=NN2S(C)(=O)=O)c1 (centres undefined)	-12	30	nt	nt	-1	158	-1.8
COc1ccc(CN2CC(C(=O)NCCN3CCN(c4ccccc4F)CC3)CC2=O)cc1 (centres undefined)	-6	102	i	1.1	-1	98	-0.7
CC(C)(C)c1cc[n+](-c2[nH]c(=O)sc2/C=N/NC([S-])=Nc2ccccc2)cc1	nt	nt	?	nt	nt	105	nt
Cc1cccc(C(=O)NCC(=O)OCC(=O)N2CC3(C)CC2CC(C)(C)C3)c1 (centres undefined)	-32	103	i	0.92	-10	106	0.3
CCCNC(=O)CN(C)CC(=O)Nc1ccccc1C#N	nt	nt	i	0.99	1	100	nt
O=C(COC(=O)C1CCC1)NCc1ccccc1Cl	32	116	i	1	-16	99	-3.6
CC12CN3CC(C)(CN(C1)C3c1cc3ccccc3[nH]1)C2=O (centres undefined)	nt	nt	i	0.93	-4	104	-0.6
CC(C)(C)OC(=O)N1CCN(C(=O)[C@H](Cc2ccc(O)cc2)n2cc(CCO)nn2)CC1	nt	nt	i	0.99	0	120	nt
O=C(c1ccc([N+](=O)[O-])cc1)N1C=CC(C(F)(F)F)=NCC1	nt	nt	i	0.91	-5	99	nt
COc1ccc(C(C)=O)cc1CS(=O)(=O)CC(=O)O	nt	nt	i	0.98	-2	97	nt
O=C(COc1ccc(Cl)cc1Cl)Nc1ccc2nc3n(c(=O)c2c1)CCCC3	nt	nt	i	0.84	-4	102	-0.3
Cc1ccc(-c2cc3ccccc3nc2N2CCOCC2)cc1	nt	nt	i	0.88	-3	102	nt
O=C(c1ccccc1[N+](=O)[O-])N1CCN(Cc2ccc3c(c2)OCO3)CC1	25	133	i	1.1	-3	94	-0.8
COc1ccc(C(=O)NC(=S)Nc2ccccc2F)cc1	-11	103	i	0.95	-4	111	-0.5
O=S1(=O)CCN(Cc2ccc(Cl)cc2)CC1	-9	118	i	0.91	0	123	-0.8
CCc1ccc(Nc2ncc3c(n2)CC(c2ccc(OC)cc2)CC3=O)cc1 (centres undefined)	28	40	i	1.1	-2	101	-1.5
Clc1ccc2nc(SCc3nnc(-c4ccccc4)o3)[nH]c2c1	-27	74	nt	nt	-4	102	-3.1
CCOc1cc(NC(=S)NCC2CCCO2)c(OCC)cc1NC(=O)c1ccc(OC)cc1 (centres undefined)	23	102	i	0.87	-11	99	-1.0
CCC1(C)Cc2c(sc3nnn(CC(=O)Nc4ccccc4)c(=O)c23)CO1 (centres undefined)	nt	nt	i	0.54	-4	91	-0.8
CCCOC(=O)C1=C(C)NC2=C(C(=O)CCC2)C1c1cc(OC)ccc1OC (centres undefined)	nt	nt	i	0.76	3	72	-1.2
COc1cc(/C=C/C(=O)N2CCCc3ccccc32)cc(OC)c1OC	-21	125	i	0.85	-4	111	0.8
CCOc1cc(C(=O)Nc2ccncc2)cc(OCC)c1OCC	21	103	i	0.92	-1	105	nt
COc1ccccc1-c1nnc(N(C)C(=O)C2CCCO2)s1 (centres undefined)	23	142	i	0.94	1	101	-2.2
Cc1ccc(NCc2nc3ccccc3n2C)cc1	14	145	i	0.92	1	102	-0.5
CCC(C(=O)NC1CCCC1)N(C(=O)Cn1nnc(-c2ccc(C)o2)n1)c1cnc2ccccc2c1 (centres undefined)	-160	93	i	0.9	5	100	-0.6
COC(=O)c1ccc(NS(=O)(=O)N(C)C)cc1	-32	92	i	1	-12	104	-1.9
CC(=O)c1ccc(N(C(=O)Cn2nnc(-c3ccccc3)n2)C(C(=O)NC2CCCCC2)c2ccccn2)cc1 (centres undefined)	37	90	i	0.84	-5	105	-0.5
COc1cc(/C=C(\C#N)C(=O)Nc2cccc3ncccc23)cc(OC)c1OC	nt	nt	i	1	32	101	-1.3
Cc1cccc(-n2c(SCC(=O)NCc3ccco3)nnc2-c2ccco2)c1	-56	106	i	0.92	-7	100	-0.9
Cc1nonc1C(=O)N/N=C/c1cc2c(cc1Br)OCO2	nt	nt	i	1	-5	112	nt
CCOC(=O)c1csc(NC(=O)CCSc2ccccc2)n1	-11	207	i	0.99	-5	109	nt
O=C(CN1CCc2ccccc21)NC(=O)NCc1ccco1	-53	92	i	1.1	-36	nt	-2.3
C=CCOC(=O)c1cn(CC)c2nc(C)ccc2c1=O	-60	124	i	0.83	-6	99	nt
CC(=O)Nc1ccccc1Sc1ccccc1	4	217	i	0.7	-10	103	-2.5
CCn1c(=O)cc(SCC(=O)NCc2ccc(C)o2)c2ccccc21	nt	nt	i	0.96	-2	105	-3.1
O=C(NCCc1ccccc1)/C(=N\O)c1ccccc1	nt	nt	nt	nt	-9	105	-3.9
CC1=CC(c2ccccc2)n2nnnc2N1 (centres undefined)	nt	nt	i	1.1	nt	105	nt
O=C(/C=C/c1ccccc1[N+](=O)[O-])N1CCN(c2ccccc2F)CC1	-43	65	i	0.97	-1	113	nt
CCC1=NN(C(=O)CCc2ccccc2)C(O)(C(F)(F)F)C1 (centres undefined)	0	88	i	1.1	-15	99	-1.0
O=c1c2c(nc3c(-c4ccc(Cl)cc4)c[nH]n13)CCCC2	-18	75	i	1	0	111	-1.1
O=C(NCc1ccccc1)c1cncc(Br)c1	-31	126	i	0.97	0	91	-0.9
CN(C)S(=O)(=O)c1ccc(Cl)c(NC(=O)COC(=O)CCSc2ccccc2)c1	nt	nt	i	1	6	101	-0.3
Cc1occc1-c1nnc(SCC(=O)N2CCOCC2)n1CCc1ccccc1	-75	90	i	1	-1	100	-0.9
CC(C)c1ccc(NC(=O)CNC(=O)Cn2cnc3ccccc3c2=O)cc1	-36	72	i	0.93	0	105	nt
Clc1ccc(CSc2snnc2-c2ccccc2)c(Cl)c1	-48	132	i	0.9	-2	104	-1.0
Cc1ccccc1-n1nnnc1SCC(=O)c1c(N)n(C)c(=O)n(C)c1=O	nt	nt	i	0.9	nt	102	nt
N=c1c2c(ncn1Cc1ccco1)Oc1ccc3ccccc3c1C2c1ccccc1 (centres undefined)	nt	nt	i	0.71	-4	84	0.0
COc1ccccc1NC(=O)c1ccc(NC(=O)CSc2ncn[nH]2)cc1	43	107	i	0.98	-5	101	-1.2
Cc1ccc(C(=O)C(C)OC(=O)C2CC(=O)N(C3CCCCC3)C2)cc1 (centres undefined)	43	66	i	0.9	-5	100	-2.9
CC(=O)c1cccc(NC(=S)NC2CC2)c1	-4	97	i	0.97	0	103	0.3
CCCOc1ccc(C(=O)c2nc3c(n2O)CCCC3)cc1	-82	37	i	0.86	-10	87	0.8
COc1cc(S(=O)(=O)N(Cc2ccccc2)CC2CCCO2)ccc1-n1cnnn1 (centres undefined)	nt	nt	i	0.97	3	48	nt
CC(=O)c1ccc(NC(=O)c2cnn3ccccc23)cc1	nt	nt	i	1.1	-14	105	-2.4
Brc1cccc(-c2nnc3n2CCC3)c1	-13	142	i	1.2	-4	102	-1.9
CC(=O)N1CCN(Cc2nc3cc(NC(=O)Cn4nc(C)c5ccccc5c4=O)ccc3n2C)CC1	39	88	nt	nt	-1	101	-1.1
NS(=O)(=O)c1ccc(NNC(=O)c2sccc2Cl)cc1	nt	nt	i	0.77	nt	100	nt
COc1cc(C)c(NC(=S)Nc2cccc(Cl)c2)cc1OC	-12	47	i	0.91	1	169	-1.4
O=C(Cc1ccccc1)N1CCC(O)(c2cccnc2)CC1	nt	nt	i	0.92	1	100	-1.8
O=c1c2cc(N3CCOCC3)ccc2[nH]c(=S)n1Cc1ccc(Cl)cc1	nt	nt	i	1.1	2	101	0.2
CCCS(=O)(=O)c1c(S(=O)(=O)CCC)c2c(C(N)=O)cccn2c1C(=O)c1ccc(F)cc1	-80	114	i	1	12	105	nt
Carrying on:
SMILES	Insulin prom inh	Insulin prom inh cell count	HSV replic up	HSV replic up primary fold	PKD1 kinase inh	RGS16-Gao HTS	GALR2 ag
COc1ccc(OC)c(N(CC(=O)Nc2ccccc2)S(C)(=O)=O)c1	nt	nt	i	0.86	-12	97	-0.9
O=C(CO/N=C/c1cccc([N+](=O)[O-])c1)NC1CCCCCC1	-450	61	i	0.82	-3	100	-0.5
CCS(=O)(=O)n1nc(-c2ccco2)nc1N	-19	116	i	0.91	-6	104	nt
CC(=O)NS(=O)(=O)c1ccc(NC(=O)CSc2ccccc2)cc1	nt	nt	i	0.98	nt	93	nt

Screening results: PubChem, several laboratories
